GLA inh pH 4.5 – qHTS Assay for Inhibitors of Human alpha-Galactosidase at pH 4.5; purified enzyme, 4-MU-alpha-Gal fluorescence, pH 4.5; activity change, negative = inhibition, % at 105 µM; 230,000 tested, under 10 active; AID 1467, 2008; inconclusive = small, poorly fitted or top-dose-only inhibition, or a rising curve; inactive = flat fitted curve, though single readings scatter; no compound was filed as active;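 further: 0% = full activity with enzyme and -100% = basal without enzyme; dose as in the result columns while the protocol names 77 µM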
Rango-impB inh – qHTS Assay for Inhibitors of Rango (Ran-regulated importin-beta cargo) - Importin beta complex formation; Importin subunit beta-1 (Homo sapiens), Q14974; Rango CFP/YFP FRET sensor + importin beta, 45 min; Potency, µM (doses to about 92.2 µM), for the others: at the top dose inhibition of complex formation; 340,000 compounds, 0.031% hits; AID 540263, 2011; active = rising FRET ratio curve, often small or poorly fitted; inconclusive = mostly compound fluorescence or quenching in the first reads; inactive = flat curves in all reads;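 further: potency means the concentration at half of the fitted maximal effect; 0% = DMSO wells and 100% = buffer wells lacking importin beta; nearly all actives have a fitted effect of over 15% in size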
Target sequence (Q14974 whole entry, looked up): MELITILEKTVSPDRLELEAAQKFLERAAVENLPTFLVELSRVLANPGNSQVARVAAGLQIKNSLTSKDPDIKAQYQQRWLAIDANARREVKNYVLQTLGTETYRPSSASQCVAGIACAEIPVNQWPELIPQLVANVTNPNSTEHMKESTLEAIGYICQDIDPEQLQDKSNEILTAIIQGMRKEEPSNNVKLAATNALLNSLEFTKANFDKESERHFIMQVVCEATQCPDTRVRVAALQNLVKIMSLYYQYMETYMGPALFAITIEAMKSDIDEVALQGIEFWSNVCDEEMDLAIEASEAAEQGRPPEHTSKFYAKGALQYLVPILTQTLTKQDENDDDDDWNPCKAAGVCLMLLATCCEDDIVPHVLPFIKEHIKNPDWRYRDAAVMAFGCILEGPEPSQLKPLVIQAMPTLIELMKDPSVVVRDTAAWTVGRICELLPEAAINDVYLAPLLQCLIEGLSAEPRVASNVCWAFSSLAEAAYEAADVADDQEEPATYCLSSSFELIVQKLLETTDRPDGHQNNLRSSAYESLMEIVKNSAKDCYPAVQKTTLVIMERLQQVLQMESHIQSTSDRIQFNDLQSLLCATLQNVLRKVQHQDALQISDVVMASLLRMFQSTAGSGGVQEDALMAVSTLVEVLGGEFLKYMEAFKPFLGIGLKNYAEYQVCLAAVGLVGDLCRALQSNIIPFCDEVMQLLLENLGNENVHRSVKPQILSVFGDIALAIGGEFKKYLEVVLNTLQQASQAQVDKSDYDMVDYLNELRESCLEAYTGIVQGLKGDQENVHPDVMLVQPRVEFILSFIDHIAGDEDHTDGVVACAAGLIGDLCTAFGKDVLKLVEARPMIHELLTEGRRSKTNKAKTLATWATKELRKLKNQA
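FRET biosensor Rango (snurportin 1 IBB between N-terminal EYFP and C-terminal Cerulean), 50 nM in PBS/1 mM DTT/0.02% Tween-20/0.1% BSA, preincubated 5 min RT with compound; 0.125 microM importin beta added, 45 min RT, CFP/YFP FRET ratio read.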
miR-21 FLuc – qHTS Assay for Modulators of miRNAs and/orActivators of miR-21; 340,000 tested, under 10 active; Potency, µM (doses to about 38.3 µM), for the others: at the top dose reporter change, positive = more light; AID 2288, 2010; HeLa miR-21 FLuc reporter, luciferase, 48 h; active = well fitted rising curve with a large enough effect; inconclusive = small, poorly fitted or top-dose-only effect; inactive = no such curve, though single readings can be large or run the other way;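 further: % of control where 0% means no effect; miR-21 action dims this reporter so a rising signal means less miR-21 action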
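HeLa miR-21-FLuc reporter line, endogenous miR-21; 2000 cells/well in DMEM/10% FBS; compound titration up to ~40uM final, 48 h, 37 degree Celsius; luciferase detection reagent, 15 min lysis, CCD luminescence.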
Rango release inh – qHTS Assay for Inhibitors of RanGTP induced Rango (Ran-regulated importin-beta cargo) - Importin beta complex dissociation; Biochemical FRET Rango-importin beta, RanGTP-induced dissociation; Potency, µM (highest dose often 46.1 µM), for inactives: top-dose activity change, negative = inhibition; 340,000 compounds, 0.071% hits; active means falling FRET ratio curve, often poorly fitted, with flat reads before Ran was added; inconclusive means other falling curves, or compound fluorescence or quenching; inactive means flat or rising ratio curve;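 further: potency means the concentration at half of the fitted maximal effect; % of control where 0% means no effect; nearly all actives have a fitted effect of over 45% in size; -100% = wells without RanGTP and RCC1; the record marks most hits as doubtful in a second field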
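Two FRET readings bracket the reaction: one 5 min after compound meets Rango–importin beta, another 45 min after RanGTP-RCC1 (0.6 uM Ran, 0.2 uM RCC1, 2 mM GTP) is added. Only the second defines inhibition.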
Active calls of the source: *.

For CN(CCCNC(=O)c1cc2c(=O)[nH]c3ccccc3c2n1C)Cc1ccccc1 the results were GLA inh pH 4.5 -14, Rango-impB inh -1.4%, miR-21 FLuc 0% and Rango release inh 0%.
Screening CC1(C)OC(=O)C(=CNc2cccc(O)c2)C(=O)O1 returned GLA inh pH 4.5 5, Rango-impB inh 2.3%, miR-21 FLuc -11% and Rango release inh 9%.
For COc1ccc(OCC(=O)Nc2cccc(NC(=O)c3ccco3)c2)cc1 the results were GLA inh pH 4.5 -2, Rango-impB inh 1.0%, miR-21 FLuc -2% and Rango release inh 1%.
For COc1cc(/C=C2/C(=O)c3cccc([N+](=O)[O-])c3C2=O)c(Br)cc1O the results were GLA inh pH 4.5 inconclusive, Rango-impB inh 6.3%, miR-21 FLuc 8% and Rango release inh inconclusive.
Screening O=C1CCc2cc(S(=O)(=O)N3CCCCC3)cc3c2N1CCC3 returned Rango-impB inh 0.7% and Rango release inh -19%.
Screening O=C(Nc1ccccc1)C1=C[C@@H](C2CC2)C[C@@H](OCCCCO)O1 returned GLA inh pH 4.5 6, Rango-impB inh 5.4%, miR-21 FLuc -41% and Rango release inh 0%.
Screening CCN(CC)C(=O)c1sc(NC(=O)c2cc(-c3ccc(C)s3)nc3ccccc23)c(C(=O)OC)c1C returned GLA inh pH 4.5 -1, Rango-impB inh -0.4%, miR-21 FLuc -5% and Rango release inh 7%.
Cc1cc(Nc2ccccc2)c2c([N+](=O)[O-])cc(C)c(C)c2n1 was read as GLA inh pH 4.5 -12, Rango-impB inh 1.9%, miR-21 FLuc -1% and Rango release inh 42%.
`CCOC(=O)C1(CCOc2ccccc2)CCN(Cc2ccc3nonc3c2)CC1` gave GLA inh pH 4.5 3, Rango-impB inh -0.6%, miR-21 FLuc 6% and Rango release inh 12%.
Screening Cc1ccc(S(=O)(=O)Nc2ccc3nc(C)oc3c2)cc1 returned Rango-impB inh -2.4% and Rango release inh -1%.
O=C(Nc1ccncc1)c1cccc(S(=O)(=O)N2CCCC2)c1 was read as Rango-impB inh -0.9%, miR-21 FLuc 12% and Rango release inh 1%.
`CCN(CC)CC(O)CN(c1ccccc1)S(=O)(=O)c1ccc2ccccc2c1` (configuration not stated) gave Rango-impB inh 0.8%, miR-21 FLuc -7% and Rango release inh 29%.
O=C(CCS(=O)(=O)c1ccc(Br)cc1)N1CCN(Cc2ccccc2)CC1 was read as GLA inh pH 4.5 -9, Rango-impB inh 3.4%, miR-21 FLuc 1% and Rango release inh -6%.
`COc1ccc(OC)c(-c2csc(NC(=O)C3=NN(c4ccccc4)C(=O)CC3)n2)c1` gave GLA inh pH 4.5 -4, Rango-impB inh 3.8%, miR-21 FLuc -1% and Rango release inh -9%.
NNc1nc2cc3c(cc2s1)OCCO3 was read as Rango-impB inh 1.9%, miR-21 FLuc -52% and Rango release inh 26%.

Overlap with the part before: 6 compounds, followed by the next part.
Screening Cc1ccc(S(=O)(=O)Nc2ccc3nc(C)oc3c2)cc1 returned Rango-impB inh -2.4% and Rango release inh -1%.
O=C(Nc1ccncc1)c1cccc(S(=O)(=O)N2CCCC2)c1 was read as Rango-impB inh -0.9%, miR-21 FLuc 12% and Rango release inh 1%.
`CCN(CC)CC(O)CN(c1ccccc1)S(=O)(=O)c1ccc2ccccc2c1` (configuration not stated) gave Rango-impB inh 0.8%, miR-21 FLuc -7% and Rango release inh 29%.
O=C(CCS(=O)(=O)c1ccc(Br)cc1)N1CCN(Cc2ccccc2)CC1 was read as GLA inh pH 4.5 -9, Rango-impB inh 3.4%, miR-21 FLuc 1% and Rango release inh -6%.
`COc1ccc(OC)c(-c2csc(NC(=O)C3=NN(c4ccccc4)C(=O)CC3)n2)c1` gave GLA inh pH 4.5 -4, Rango-impB inh 3.8%, miR-21 FLuc -1% and Rango release inh -9%.
NNc1nc2cc3c(cc2s1)OCCO3 was read as Rango-impB inh 1.9%, miR-21 FLuc -52% and Rango release inh 26%.
`CCOn1c(=O)c(-c2cccs2)[n+]([O-])c2ccccc21` gave GLA inh pH 4.5 -4, Rango-impB inh inconclusive, miR-21 FLuc -3% and Rango release inh -29%.
`Cc1nn(-c2ccccc2)c(N2CCCC2)c1/C=N/NC(=O)c1cccc(S(=O)(=O)Nc2ccc(Cl)cc2)c1` gave GLA inh pH 4.5 -10, Rango-impB inh inconclusive, miR-21 FLuc 17% and Rango release inh 16%.
`Cc1ccc(C(c2nnnn2C2CCCCC2)N2CCc3ccccc32)cc1` (configuration not stated) gave GLA inh pH 4.5 -1, Rango-impB inh -1.3%, miR-21 FLuc -3% and Rango release inh -14%.
Screening CCCCc1ccc(N/C(N)=N/c2nc(C)cc(C)n2)cc1 returned GLA inh pH 4.5 1, Rango-impB inh -0.5%, miR-21 FLuc 23% and Rango release inh 16%.
For CC(C)(C)c1ccc(OCCC(=O)NNC(=O)c2ccccc2)cc1 the results were Rango-impB inh 0.2% and Rango release inh -13%.
O=C1c2ccccc2C(=O)N1CCCc1nc(-c2ccccn2)no1 was read as GLA inh pH 4.5 -5, Rango-impB inh 4.2%, miR-21 FLuc -10% and Rango release inh -8%.
CCCS(=O)(=O)N1CCCC(C(=O)NCCc2ccc(Cl)cc2)C1 (configuration not stated) was read as GLA inh pH 4.5 -4, Rango-impB inh -0.1%, miR-21 FLuc -8% and Rango release inh 5%.
`COc1ccc(CNC(=O)CCCC2=NS(=O)(=O)c3ccccc3N2)cc1` gave Rango-impB inh -2.0%, miR-21 FLuc 1% and Rango release inh 1%.
`CCN(CC)C(=S)Nc1ccc(C(=O)OC)cc1` gave GLA inh pH 4.5 7, Rango-impB inh 4.9%, miR-21 FLuc -13% and Rango release inh 8%.
For CC(=N)c1c(O)c2ccccc2oc1=O the results were GLA inh pH 4.5 1, Rango-impB inh -3.1%, miR-21 FLuc -19% and Rango release inh -5%.
For O=C1/C(=C/c2cccc(Cl)c2)SC(=S)N1CCC(=O)N1CCCCC1CCO (configuration not stated) the results were Rango-impB inh 4.1%, miR-21 FLuc 20% and Rango release inh -5%.
For Cc1cccc(N(CC(O)CN2CCOCC2)S(=O)(=O)c2ccccc2)c1 (configuration not stated) the results were Rango-impB inh 2.7%, miR-21 FLuc 0% and Rango release inh 2%.
For CCC(C(=O)Nc1c[nH]c(=O)[nH]c1=O)c1ccccc1 (configuration not stated) the results were GLA inh pH 4.5 -1, Rango-impB inh -0.6%, miR-21 FLuc -7% and Rango release inh -6%.
CC(C)Nc1nc(NC(C)C)nc(SCC(N)=O)n1 was read as GLA inh pH 4.5 4, Rango-impB inh -0.7%, miR-21 FLuc -4% and Rango release inh 0%.
Screening COc1ccccc1C1CC(c2ccc(Cl)cc2)Nc2ncnn21 (configuration not stated) returned GLA inh pH 4.5 -4, Rango-impB inh inconclusive, miR-21 FLuc -1% and Rango release inh -23%.
`COC(=O)c1cc(S(=O)(=O)N2CCC(c3cc(OC)ccc3OC)C2)c[nH]1` (configuration not stated) gave Rango-impB inh -2.3%, miR-21 FLuc 12% and Rango release inh inconclusive.
Screening C/C(=N\NC(=O)c1ccccc1O)C1C(=O)c2ccccc2C1=O returned GLA inh pH 4.5 -2, Rango-impB inh -1.8%, miR-21 FLuc -26% and Rango release inh 14%.
For COc1ccc2cc(C(=O)O)ccc2c1 the results were GLA inh pH 4.5 -1, Rango-impB inh 6.4%, miR-21 FLuc -2% and Rango release inh 22%.
For CC1CCCN(C(=O)c2cccc(S(=O)(=O)N3CCCc4ccccc43)c2)C1 (configuration not stated) the results were Rango-impB inh -2.3% and Rango release inh -6%.
Screening CCn1c(SCC(=O)Nc2nccs2)nnc1-c1ccc(C)cc1 returned GLA inh pH 4.5 -3, Rango-impB inh -1.1%, miR-21 FLuc -3% and Rango release inh -1%.
O=C(NCC1COc2ccccc2O1)c1cccs1 (configuration not stated) was read as Rango-impB inh -0.2%, miR-21 FLuc -49% and Rango release inh 4%.
Screening CC(=O)c1cnc(SCc2ccc(Cl)cc2)nc1C returned GLA inh pH 4.5 7, Rango-impB inh 3.2%, miR-21 FLuc -40% and Rango release inh 0%.
Screening Cc1[nH]c2nc3ccccc3n2c(=O)c1CCC(C)C returned Rango-impB inh 0.2%, miR-21 FLuc -19% and Rango release inh 8%.
Screening COC(=O)c1cc(=O)n(Cc2ccc(OC)cc2)c(=NCc2ccc(OC)cc2)s1 returned GLA inh pH 4.5 2, Rango-impB inh 4.1%, miR-21 FLuc 4% and Rango release inh -1%.
CC1CCCN(C(=O)COc2ccc(NC(=O)c3cccs3)cc2)C1 (configuration not stated) was read as GLA inh pH 4.5 1, Rango-impB inh -0.9%, miR-21 FLuc -15% and Rango release inh 3%.
Screening Cc1cc(N2CCC(C)CC2)nc(NCc2ccccc2)n1 returned GLA inh pH 4.5 0, Rango-impB inh 2.1%, miR-21 FLuc 28% and Rango release inh -10%.
CCCCNc1c(-c2cccc(-c3ccc(OC)cc3)c2)nc2cc(C)ccn12 was read as Rango-impB inh inconclusive and Rango release inh inconclusive.
For CCC(C)C(=O)Nc1nnc(SCC(=O)NC(C)(C)C)s1 (configuration not stated) the results were GLA inh pH 4.5 0, Rango-impB inh -0.4%, miR-21 FLuc -3% and Rango release inh 1%.
For CC(NC(=O)c1ccccc1NC(=O)c1ccco1)c1ccccc1 (configuration not stated) the results were GLA inh pH 4.5 -3, Rango-impB inh 3.7%, miR-21 FLuc -8% and Rango release inh 12%.
For c1ccc2oc(-c3[nH]ncc3CN(Cc3ccncc3)CC3CCCO3)cc2c1 (configuration not stated) the results were GLA inh pH 4.5 -4, Rango-impB inh 0.7%, miR-21 FLuc -9% and Rango release inh -6%.
`O=C(NCc1ccccn1)c1ccc(COc2ccc(Cl)cc2)o1` gave GLA inh pH 4.5 2, Rango-impB inh -1.5%, miR-21 FLuc -6% and Rango release inh -9%.
`OC1(c2cccnc2)CCN(Cc2nnnn2C2CCCCC2)CC1` gave GLA inh pH 4.5 -3, Rango-impB inh 2.0%, miR-21 FLuc -7% and Rango release inh -2%.
Cc1ccc(-n2nc(C)c3c(C)onc3c2=O)cc1 was read as GLA inh pH 4.5 -3, Rango-impB inh -0.7%, miR-21 FLuc -20% and Rango release inh 1%.
For CCN(Cc1ccccc1)S(=O)(=O)c1ccccc1Br the results were Rango-impB inh -0.9% and Rango release inh 42%.
`COc1ccc(CCN(C)C(=O)CSc2nnc(-c3ccco3)o2)cc1OC` gave Rango-impB inh 3.5%, miR-21 FLuc -6% and Rango release inh -3%.
Screening CCC(C)CN1CCC(CO)(Cc2ccccc2Cl)CC1 (configuration not stated) returned GLA inh pH 4.5 -1, Rango-impB inh -3.3%, miR-21 FLuc 5% and Rango release inh 34%.
CN(C)C(=O)c1ccc(-n2cccn2)nc1 was read as GLA inh pH 4.5 -15, Rango-impB inh 2.4%, miR-21 FLuc -10% and Rango release inh 6%.
`COc1ccccc1OCC(=O)Nc1ccc(CSc2ccccc2)cc1C` gave GLA inh pH 4.5 -7, Rango-impB inh 1.7%, miR-21 FLuc -1% and Rango release inh 3%.
`O=C(COC(=O)c1ccccc1[N+](=O)[O-])c1ccc(C2CCCCC2)cc1` gave GLA inh pH 4.5 3, Rango-impB inh 2.1%, miR-21 FLuc -13% and Rango release inh -3%.
Screening CC(C)C(C)NC(=O)CN1C(=O)NC(C)(c2ccc3ccccc3c2)C1=O (configuration not stated) returned Rango-impB inh 5.4%, miR-21 FLuc -2% and Rango release inh 11%.
CC(C)OC(=O)CSc1nnc(-c2ccccn2)n1C was read as GLA inh pH 4.5 -4, Rango-impB inh 0.1%, miR-21 FLuc -9% and Rango release inh 1%.
CC(Oc1ccc(C#N)cc1)C(=O)NC1CCCC1 (configuration not stated) was read as Rango-impB inh -1.5% and Rango release inh 15%.
Screening CCN(CC(=O)Nc1ccccc1C(F)(F)F)C(=O)c1cc(S(=O)(=O)N(C)C)ccc1N1CCCC1 returned Rango-impB inh -0.6%, miR-21 FLuc -1% and Rango release inh 0%.

Bioassay records as filed in PubChem.

Not all compounds are listed (hit frequency here may not be typical).
